# Assay outcomes: PubChem, Johns Hopkins Ion Channel Center
# KCNQ2 pot – enhances the rat KCNQ2 potassium channel | CHO-K1 KCNQ2, FluxOR thallium flux fluorescence; stronger effect = higher value | B-score at 10 µM | hit rate 0.54% among 310,000;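 active = fluorescence ratio B-score at least 3 SD of library B-scores, with initial fluorescence B-score within 3 SD, cut at about 5.3 in these data; same plate scores as AID 2156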;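 note: B-score of peak minus minimum over baseline fluorescence ratio after K+ and Tl+ stimulus; positive B-score means potentiation of KCNQ2 with more thallium influx and brighter signal; only the inactives scoring about 0 or higher are listed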
# Target sequence (O88943 whole entry, looked up): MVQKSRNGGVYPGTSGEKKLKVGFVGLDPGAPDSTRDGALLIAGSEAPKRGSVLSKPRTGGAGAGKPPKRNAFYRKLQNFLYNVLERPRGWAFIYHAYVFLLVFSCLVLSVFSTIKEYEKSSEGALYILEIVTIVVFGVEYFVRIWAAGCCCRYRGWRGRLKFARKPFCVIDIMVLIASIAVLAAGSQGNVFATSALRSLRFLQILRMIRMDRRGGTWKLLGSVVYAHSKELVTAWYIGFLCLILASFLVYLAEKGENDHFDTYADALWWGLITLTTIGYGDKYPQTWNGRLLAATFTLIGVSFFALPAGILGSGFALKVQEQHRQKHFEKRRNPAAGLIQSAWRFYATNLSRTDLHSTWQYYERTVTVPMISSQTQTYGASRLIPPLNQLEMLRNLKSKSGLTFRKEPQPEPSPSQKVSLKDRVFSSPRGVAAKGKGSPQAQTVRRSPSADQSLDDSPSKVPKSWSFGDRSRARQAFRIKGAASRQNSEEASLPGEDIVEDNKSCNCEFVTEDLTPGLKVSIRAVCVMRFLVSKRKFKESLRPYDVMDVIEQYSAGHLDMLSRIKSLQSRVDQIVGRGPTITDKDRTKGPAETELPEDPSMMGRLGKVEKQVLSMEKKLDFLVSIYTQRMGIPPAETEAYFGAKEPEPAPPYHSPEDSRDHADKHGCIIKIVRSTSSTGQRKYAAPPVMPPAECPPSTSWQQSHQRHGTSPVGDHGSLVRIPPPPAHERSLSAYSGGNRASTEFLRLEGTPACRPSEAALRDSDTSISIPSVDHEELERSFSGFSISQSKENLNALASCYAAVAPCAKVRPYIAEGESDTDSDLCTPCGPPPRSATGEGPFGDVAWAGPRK
# KCNQ2 pot baseline – also measured in KCNQ2 pot; calls as there; B-score; compound at 10 µM; measured here: initial fluorescence intensity artifact check;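 brightness before thallium and not channel activity; 0 = typical well and far values either way flag optical interference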
# * = called active by the depositor. These rows are one share of the data; the hit share may differ from the screen's.
KCNQ2 pot	KCNQ2 pot baseline	SMILES
0.63	0.02	COc1cccc(-c2nnc(SCC3CNC(=O)O3)n2-c2ccc(Cl)cc2)c1 (stereo unspecified)
1.3	-0.95	COc1ccc(C2C(C#N)=C(/N=C/N3CCN(C)CC3)OC3=C2C(=O)CC(C)(C)C3)cc1OC (stereo unspecified)
0.28	0.04	C=CCOc1ccc(/C=N/NC(=O)C(=O)Nc2ccccn2)cc1OC
0.57	-1.2	CCOC(=O)N1CCN(C(=O)c2ccccc2NC(=O)c2ccc(C(C)(C)C)cc2)CC1
0.56	-0.75	CC(C)CCNC(=O)c1cc(-c2cccs2)nc2ccccc12
1.6	-0.5	S=c1[nH]ncn1/N=C/c1ccc(N2CCOCC2)cc1
0.17	-0.6	Cc1cc2nc3c(nc2cc1C)CCCC3
0.56	-0.26	CCc1cc(=O)oc2cc(C)cc(OCC(=O)NCC(O)c3ccccc3)c12 (stereo unspecified)

# The last two records of the part above come first, to join the parts:
KCNQ2 pot	KCNQ2 pot baseline	SMILES
0.17	-0.6	Cc1cc2nc3c(nc2cc1C)CCCC3
0.56	-0.26	CCc1cc(=O)oc2cc(C)cc(OCC(=O)NCC(O)c3ccccc3)c12 (stereo unspecified)
0.88	0.28	CCCC(=O)Nc1nc(CC(=O)OCC)cs1
2.3	-0.68	Cc1ccc(-c2c(C)n([O-])c3c([n+]2=O)CCCCC3)cc1
0.32	-0.12	O=[N+]([O-])C1C(c2ccccc2)=NOC1c1ccccc1O (stereo unspecified)
0.49	-0.92	COC(=O)c1nn(-c2cccc(Cl)c2)ccc1=O
1.1	0.03	COc1ccc(N2CCc3c(C)nc4c(OC)cccc4c32)cc1
0.71	0.63	O=C(Cc1ccccc1)Nc1ccccc1C(=O)N1CCCCCC1
0.38	-0.8	OCCC1CN(Cc2cccn2-c2ccccn2)CCN1C1CCCCC1 (stereo unspecified)
2.7	-0.87	CCN(C(=O)c1ccc2c(=O)n3c(nc2c1)CCCCC3)c1cc(OC)ccc1OC
0.11	0.09	COC(=O)c1ccccc1NC(=O)CSc1nc2ncccc2[nH]1
0.22	2.4	Cc1ccc(NC(=O)Nc2ccccc2)nc1
0.01	0.56	O=C(Cc1ccccc1)c1c[nH]c(C(=O)NC2CCCC2)c1
0.27	-0.54	COc1cccc2cc(-c3csc(NC(=O)CCC(=O)NCCCN4CCC(C)CC4)n3)c(=O)oc12
0.88	-0.04	Cn1ccnc1SCC(=O)NC1(C#N)CCCCC1
2.3	-0.18	CCCC(=O)N(c1ccc(C(=O)O)cc1)c1nc(-c2ccccc2)c(C)s1
1.1	-0.99	Cc1ccc2cc(CN(C)S(C)(=O)=O)c(=O)[nH]c2c1
6.9*	-1.6*	S=C(Nc1ccccc1)N1CCCCC1
1.1	0.64	CCCC(=O)Nc1c2c(nn1-c1ccc(OC)cc1)CS(=O)C2 (stereo unspecified)
2.6	-0.63	NC(=O)c1oc2ccccc2c1NC(=O)C1CC(=O)N(c2ccccc2)C1 (stereo unspecified)
0.58	-0.39	CCc1nnc(NC(=O)CCC2CCCCC2)s1
0.98	-0.29	CC(c1ccon1)N(C)C(=O)c1ccc(OC2CCN(C(=O)C3CC3)CC2)cc1 (stereo unspecified)
0.64	-1.6	O=C(CN1CCOCC1)N/N=C/c1cccc2ccccc12
0.16	1.7	CCc1ccccc1N1C(=O)C(Cl)=C(N2CCOCC2)C1=O
0.04	-0.38	CCC(C)NC(=O)c1[nH]c(C)c(C(=O)OC)c1C (stereo unspecified)
0.05	-0.99	CCN(CC)S(=O)(=O)c1cccc(C(=O)NCCc2ccccc2)c1

# Single entries from above.
# Result for `CCN(CC)S(=O)(=O)c1cccc(C(=O)NCCc2ccccc2)c1` under KCNQ2 pot baseline: -0.99
# Result for `CCc1nnc(NC(=O)CCC2CCCCC2)s1` under KCNQ2 pot: 0.58

# Other results
KCNQ2 pot	KCNQ2 pot baseline	SMILES
0.92	-0.03	Cc1ccc2nc(SCC(=O)c3ccc(Cl)cc3)nc(=O)n2c1
1.1	-1.4	Cc1ccc(C(=O)CSc2nc3ccccc3c(=O)n2-c2ccccc2)s1
0.57	-0.01	O=C1C(C2=C(O)c3ccccc3C2=O)=Nc2ccccc21
0.01	0.23	COC(=O)CNC(=O)c1cc(-c2ccncc2)nc2c(C)c(Cl)ccc12
0.31	-0.66	CCOc1ccc(CCNC(=O)C(C)n2nc(C)c3c(C)n(-c4ccccc4)nc3c2=O)cc1 (stereo unspecified)
0.62	1.8	Cc1cc(C)cc(OCC(=O)Nc2ccncc2)c1
2.2	-1.6	O=C(O)C/C(=C\c1ccc(Cl)cc1)c1nc2ccccc2o1
0.74	-0.33	CNC(=O)C(=O)NCC1OCCN1S(=O)(=O)c1ccc(C)cc1 (stereo unspecified)

# A draw from above in order of SMILES length, falling:
KCNQ2 pot	KCNQ2 pot baseline	SMILES
0.31	-0.66	CCOc1ccc(CCNC(=O)C(C)n2nc(C)c3c(C)n(-c4ccccc4)nc3c2=O)cc1 (stereo unspecified)
0.01	0.23	COC(=O)CNC(=O)c1cc(-c2ccncc2)nc2c(C)c(Cl)ccc12
0.92	-0.03	Cc1ccc2nc(SCC(=O)c3ccc(Cl)cc3)nc(=O)n2c1

# Remaining list, next part:
KCNQ2 pot	KCNQ2 pot baseline	SMILES
1.6	-0.3	OC(C#CCN1CCCC1)(c1ccccc1)c1cccc(F)c1 (stereo unspecified)
0.07	-1.2	CC1(C)CC(=O)C(C=NCC2CCN(C(=O)Nc3ccc(Cl)c(Cl)c3)CC2)=C(O)C1
0.86	-0.07	Cc1ccc(NC(=O)NC2=NN(c3ccccc3)C(=O)/C2=C2/CCCN2C)cc1
1	-0.11	O=C(Cn1c(=O)oc2cc(S(=O)(=O)N3CCCCC3)ccc21)N1CCCCC1
1.1	0.21	CCC(=O)Nc1cc(-c2nn3c(C)nnc3s2)ccc1C
2.9	-0.02	CCc1ccccc1NC(=S)N(Cc1ccc(C(=O)O)cc1)Cc1ccc(OC)c(OC)c1
0.12	1.4	CCn1c(CC(=O)Nc2ccc(C)cc2)nnc1SCC(=O)N1CCOCC1
1.6	0.73	CC1=C(C(N)=O)C(c2cccs2)NC(=S)N1 (stereo unspecified)
0.04	-1.8	COc1ccc(-c2c(-c3cccc(C)c3)oc3ccc(-c4ccc5c(c4)OCO5)cc23)cn1
0.02	-0.54	Cc1cc(NC(=O)CCC(=O)N(CC(=O)NC2CCCC2)Cc2ccc3c(c2)OCO3)no1
1.5	-1.1	CCCOC(=O)C1=C(C)NC2=C(C(=O)CCC2)C1c1ccc(N(C)C)cc1 (stereo unspecified)
0.65	-1.4	Cc1nc2ccc(NC(=O)N(C(C)C)C(C)C)cc2s1
0.07	-0.74	Cc1cccc(C(=O)N2CCN(S(=O)(=O)c3ccc4c(c3)OCCCO4)CC2)c1[N+](=O)[O-]
1.2	-1.3	CCOCCCNC(=O)C1(O)c2cc(Br)ccc2NC(=O)N1c1ccc(C)c(C)c1 (stereo unspecified)
0.29	0.36	COc1ccc(CC(=O)N2CCN(C(=O)Cc3ccc(OC)cc3)CC2)cc1
0.77	0.03	CCCOc1ccc(CNC(=O)CCC(=O)n2ncc3cc(C)ccc32)cc1
1.5	0.79	CNC(=S)Nc1ccc(N2CCN(c3ccc(C(F)(F)F)cn3)CC2)nc1
0.19	-0.67	O=C(N/N=C/c1ccc(OCC(=O)N2CCOCC2)cc1)c1ccccc1Cl
0.28	0.86	NC(=O)c1snnc1-c1ccccc1
2.4	-1.7	CCCCCCCSc1nnc(-c2ccccc2N)c(=O)[nH]1
1.4	0.93	COc1ccc(N2CCN(CCCNC(=O)c3ccc(CS(=O)(=O)c4ccc(Cl)cc4)o3)CC2)cc1
0.13	0.92	CCOC(=O)c1c(-c2ccccc2)csc1NC(=O)c1cc(S(=O)(=O)N2CCOCC2)ccc1C
0.01	0.07	CCOC(=O)Cc1c[nH]c2ccccc12
0.62	-0.49	NC(=O)C1CN(S(=O)(=O)c2ccc(Cl)cc2F)c2ccccc2O1 (stereo unspecified)
0.14	1.1	COc1cscc1C(N)=O
1.2	-0.19	O=C(O)c1ccc(CSCc2c(F)cccc2Cl)o1
1.3	0.01	CSc1ncccc1C(=O)OCc1ccccc1
0.37	0.35	Cc1cccnc1NC1(C(F)(F)F)N=C(c2ccccc2)NC1=O (stereo unspecified)
1.3	-0.09	CCc1nc2ccc(C(=O)Nc3ccc4c(c3)OCO4)cc2nc1CC
1.5	-0.17	O=C1Cc2ccccc2C(c2ccc(Cl)cc2)N1 (stereo unspecified)
1.5	-0.72	CCN(C(=O)c1sc(N)c(C#N)c1C)C1CCCCC1
0.23	-1.6	Cc1ccc(N2C(=O)N(CC(=O)N3CCOCC3)C(=O)C2C)cc1 (stereo unspecified)
0.99	0.03	CSc1cccc(NC(=O)C2CCCN(S(=O)(=O)c3cccs3)C2)c1 (stereo unspecified)
0.09	0.2	CCc1nnc(SCc2ccc(OC)c(Br)c2)n1N
0.79	1.9	COc1ccc(C)cc1NC(=O)CSc1nnc(-c2ccc(OC)c(OC)c2)n1N
0.49	1.5	Cc1[nH]c2ccccc2c1/C=C/c1nc2ccccc2c(=O)n1CCO
0.8	0.73	CCO[C@H]1OC(C(=O)N2CCN(Cc3ccc4c(c3)OCO4)CC2)=C[C@@H](c2ccccc2)[C@@H]1CCCO
1.3	0	CCOC(=O)C1(Cc2cccc(OC)c2)CCCN(Cc2ccc(NC(C)=O)cc2)C1 (stereo unspecified)
1.1	-1.3	CC(C)c1nnc(NC(=O)COc2ccccc2[N+](=O)[O-])s1
0.96	-0.42	CSCC[C@H](NC(=O)Cc1ccc(Cl)cc1)C(=O)N1CCC2(CC1)NCCc1[nH]cnc12
0.46	-0.23	Cc1ccc(C(=O)NCC(=O)OCC(=O)c2c(N)n(C)c(=O)n(C)c2=O)s1
0.92	-1.5	COc1ccc(CNCc2ccc3c(c2)OCO3)c(OC)c1OC
1	0.91	CS(=O)(=O)N1CCc2ccccc2C1
0.08	-0.88	CSc1ccccc1OCc1cc(C(=O)N2CCN(c3ncccn3)CC2)no1
0.02	0.66	O=c1oc2ccccc2n1Cc1ccccc1F
0.17	-0.69	O=C(CSC1=Nc2ccccc2C2=NC(CC(=O)NCc3ccco3)C(=O)N12)NCC1CCCO1 (stereo unspecified)
0.34	-0.64	OCCCNC(=S)Nc1ccc2nccnc2c1
1	0.99	CCCCNCCCOc1ccc(C)cc1Br
2.4	-0.46	CCOC(=O)C1CCCN(C(=O)c2cc(-c3ccncc3)nc3ccccc23)C1 (stereo unspecified)
0.02	-1.7	O=C1CC(N2CCN(c3nc4ccccc4s3)CC2)C(=O)N1c1ccc(F)cc1 (stereo unspecified)
0.15	0.24	CCCCn1cnc2c1c(=O)n(C)c(=O)n2C
2.5	1.2	CCNC(=O)COC(=O)c1ccc(-c2nc3ccccc3s2)s1
1.2	2.1	O=C(c1ccc(Cl)nc1)N1CCc2ccccc2C1
0.3	0.03	Cc1ccc(S(=O)(=O)CC2CSc3nnc(C)c(=O)n32)cc1 (stereo unspecified)
1.3	-2.5	CC1CCN(C(=O)Cn2nnc(-c3ccc(N)cc3)n2)CC1
1.6	0.01	Cc1ccc(OCCn2cnc3c(N)ncnc32)cc1

# Next section:
KCNQ2 pot	KCNQ2 pot baseline	SMILES
0.41	0.1	CCC(C)(C(=O)NC1CCCC1)N(C(=O)CC1NC(=O)NC1=O)c1ccc(C)cc1 (stereo unspecified)
0.52	-2	COc1cccc(C(=O)NCc2cccnc2)c1
0.68	0.54	O=C(CCN1C(=O)c2ccccc2C1=O)Oc1ccc2ccccc2c1
0.04	1.1	Cc1nccn1-c1ccc(C(F)(F)F)cc1NC=O
1.5	-1.1	COc1ccc(N2C(=O)CC(N3CCN(S(=O)(=O)c4c(F)cccc4F)CC3)C2=O)cc1OC (stereo unspecified)
1.7	0.37	CN1CCc2c(C#N)c(N3CCCCC3)nc(NCc3ccccc3)c2C1
1	-0.64	CCn1cc(C(=O)OC)c(=O)c2ccc(C)nc21
0.04	-0.02	O=C(O)c1ccc(CNCc2cccc(Oc3ccccc3)c2)cc1
1.3	0.66	Cc1cc(=O)oc2cc(OCCSc3nnc(-c4ccccc4)o3)ccc12
4.3	0.39	CC(Oc1ccccc1F)C(=O)NNC(=O)c1ccc(F)c(S(=O)(=O)N2CCOCC2)c1 (stereo unspecified)
0.68	-0.63	COc1ccc(C(=O)/C=C\c2ccc(NC(=O)c3cccs3)cc2)cc1
1.4	0.37	COc1ccc(C(=O)Nc2cccc(C(=O)N3CCCCC3)c2)cc1
1	0.34	Cc1ccc(CN2CCN(Cc3c(C)nn(-c4ccc(F)cc4)c3C)CC2CCO)o1 (stereo unspecified)
0.2	-0.98	CCCNC(=O)c1ccc(COc2ccc(CCC)cc2OC)o1
1.8	0.06	COc1ccccc1CC(=O)Nc1ccc(S(=O)(=O)N2CCN(C)CC2)cc1
1.7	-0.14	COc1ccc2ncc(OC(C)=O)cc2c1

# Three compounds already listed, sorted by their value in KCNQ2 pot, largest number first.
SMILES	KCNQ2 pot	KCNQ2 pot baseline
COc1ccc(C(=O)Nc2cccc(C(=O)N3CCCCC3)c2)cc1	1.4	0.37
COc1ccc(C(=O)/C=C\c2ccc(NC(=O)c3cccs3)cc2)cc1	0.68	-0.63
CCCNC(=O)c1ccc(COc2ccc(CCC)cc2OC)o1	0.2	-0.98

# Following part:
KCNQ2 pot	KCNQ2 pot baseline	SMILES
0.36	0.84	Cc1cc(C(=O)NC(=S)Nc2cccc(NC(=O)C(C)C)c2)ccc1[N+](=O)[O-]
0.4	0.11	O=c1cc(CN2CCN(Cc3ccccc3)CC2)c2cc(Cl)ccc2o1
1.7	-0.01	O=[N+]([O-])c1cccc(S(=O)(=O)c2ccc(NCCOCCO)c([N+](=O)[O-])c2)c1
2.5	0.02	Cc1ccc(NC(=O)CN2C(=O)N/C(=C\c3cccnc3)C2=O)cc1
0.51	-0.52	O=C(c1ccccc1)N1CCn2c1nc1ccccc12
0.12	-0.55	CCCCNC(=O)Cn1cnc2sc(C)c(S(=O)(=O)N3CCN(c4ncccn4)CC3)c2c1=O
